CBX7 AlphaScr: CBX7 inhibition, primary AlphaScreen; AlphaScreen His6-CBX7 / biotin-H3K27me3 peptide binding; active compounds read low; actives 1.1% (n = 66,000); normalised signal (fraction of DMSO) (test concentration not listed); O95931; in the data active means normalised signal below about 0.5;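 further: 100 nL library stock added to about 20 µL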
Target sequence (O95931 whole entry, looked up): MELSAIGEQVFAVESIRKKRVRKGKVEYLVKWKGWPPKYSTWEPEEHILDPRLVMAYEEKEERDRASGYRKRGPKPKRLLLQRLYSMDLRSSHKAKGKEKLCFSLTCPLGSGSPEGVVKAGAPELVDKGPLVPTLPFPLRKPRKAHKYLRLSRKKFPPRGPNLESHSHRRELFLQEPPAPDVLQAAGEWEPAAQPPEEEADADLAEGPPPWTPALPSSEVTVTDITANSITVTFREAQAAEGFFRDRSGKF
CBX7 AlphaScr z-score: also measured in CBX7 AlphaScr; calls as there; z-score; measured here: z-score of CBX7 signal; some inactives read as strong as hits; reference of the scale not given here;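 same signal on another scale; lower means less binding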
Active calls of the source: *. This is a subset, so the mix of outcomes need not match the whole.

SMILES	CBX7 AlphaScr	CBX7 AlphaScr z-score
CCOC(=O)N1CCN(C(=O)C2c3cc(OC)c(OC)cc3C(=O)N3CCc4ccccc4C23)CC1 (configuration not stated)	1	0.63
CCc1cccc(NC(=O)CCc2nc(-c3cccs3)no2)c1	1.1	3.9
CCN(C(=O)c1c(-c2ccccc2Cl)noc1C)C1CCCCC1	0.81	-0.82
Clc1ccc(-c2cn3nc4c(nc3n2)CCCC4)cc1	1.2	2.1
COc1ccc(-c2nc3ccccc3o2)cc1NC(=O)c1ccc(OCc2ccccc2)cc1	0.99	-0.27
Cc1ccc(Cn2nc(C)c(NC(=O)c3cc(-c4ccc(O)cc4)on3)c2C)cc1	0.99	-0.33
CCCN(CCC)CCNS(=O)(=O)c1ccc2c(c1)CCN2C(=O)CC	1.2	1.7
CC(C)Oc1ccc(-c2cc(C(=O)NCCN3CCOCC3)c3ccccc3n2)cc1	1	0.72
COc1cccc(-c2nnc(NC(=O)c3ccc(S(=O)(=O)N4CC(C)OC(C)C4)cc3)o2)c1 (configuration not stated)	0.78	-4.9
Brc1ccccc1-c1nc(-c2ccncc2)no1	1.3	2.5
O=C(CN1C2=NCCN2c2ccccc21)c1cccs1	1.2	1.9
COc1ccc(-c2nc(Nc3ccc(C)cc3Br)c3ccccc3n2)cc1OC	0.98	-0.52

In a second layout: 6 of the compounds above
Second line of a record – CBX7 AlphaScr	CBX7 AlphaScr z-score
CCCN(CCC)CCNS(=O)(=O)c1ccc2c(c1)CCN2C(=O)CC
 : 1.2	1.7
CC(C)Oc1ccc(-c2cc(C(=O)NCCN3CCOCC3)c3ccccc3n2)cc1
 : 1	0.72
COc1cccc(-c2nnc(NC(=O)c3ccc(S(=O)(=O)N4CC(C)OC(C)C4)cc3)o2)c1 (configuration not stated)
 : 0.78	-4.9
Brc1ccccc1-c1nc(-c2ccncc2)no1
 : 1.3	2.5
O=C(CN1C2=NCCN2c2ccccc21)c1cccs1
 : 1.2	1.9
COc1ccc(-c2nc(Nc3ccc(C)cc3Br)c3ccccc3n2)cc1OC
 : 0.98	-0.52

(cont.)
SMILES	CBX7 AlphaScr	CBX7 AlphaScr z-score
CC(C)C(NS(=O)(=O)c1cccs1)C(=O)NCCN1CCN(c2ccccc2)CC1 (configuration not stated)	0.93	-1.4
Cc1oc(-c2cccc(Cl)c2)nc1CN1CCCC(C(=O)NC(C)c2ccccc2)C1 (configuration not stated)	0.91	-1.1
CN(Cc1ccccc1)C(=O)CCN1C(=O)COc2ccccc21	1	-0.098
COc1cccc(-c2nn(C)c3sc(C(=O)NCc4ccccn4)cc23)c1	1	0.14
CCc1ccc(N2CC(c3nc4ccccc4n3Cc3ccccc3)CC2=O)cc1 (configuration not stated)	0.85	-3.5
CCCCc1nc2ccccc2c(NC(=O)CNC2CCCCC2)c1CCC	0.87	-2.1
Cc1ccc(NC(=O)Cn2cc(S(=O)(=O)c3ccccc3)c(=O)c3cc(F)ccc32)c(C)c1	0.84	-2.6
COc1ccc(C2(CNC(=O)C3(c4ccccc4)CCCC3)CCCC2)cc1OC	0.87	-1.5
COc1cc2c(c(OC)c1)C(c1ccc(Br)cc1)CC(=O)N2 (configuration not stated)	1.2	1.4
O=C(NCCCn1ccnc1)c1cc(-c2cccc(Br)c2)nc2ccccc12	0.85	-1.4
Cc1cc(C)cc(NS(=O)(=O)c2ccc3[nH]cc(C(=O)NCCc4ccccc4)c(=O)c3c2)c1	0.9	-1.8
COc1ccc(NC(=O)CN2C(=O)c3ccccc3S2(=O)=O)cc1OC	0.99	-0.2
Cc1cc(C)cc(OCc2nc(Cc3ccc(Cl)cc3)no2)c1	1.4	19
CCCCN(CC)CCNC(=O)Cn1ncc2c1-c1ccccc1OC2	1	0.43
CCc1ccc(NC(=O)CSc2nnc(-c3ccc(Cl)cc3Cl)o2)cc1	1	0.54
Cc1ccc(-c2cnc(-c3ccncc3)o2)cc1	1	0.033
CCSc1nnc(-c2ccc(C)c(S(=O)(=O)N(C)C)c2)c2ccccc12	0.96	-0.35
Cc1cccc(-n2c(Cc3cc(=O)[nH]c(=O)[nH]3)nnc2SCC(=O)Nc2cccc(Cl)c2)c1	1	0.91
Cc1ccc(C(=O)Nc2cccc(F)c2)cc1S(=O)(=O)N1CCCCC1	1.5	4.4
CCOc1ccccc1C(=O)Nc1c(-c2ccccc2)nc2ccccn12	0.73	-7.8
CCOC(=O)c1cnc2c(Cl)cccc2c1Nc1cccc(Cl)c1	0.96	-0.26
CCOc1cc(/C=C/c2cc(C(F)(F)F)[nH]c(=O)n2)ccc1O	0.99	-0.13
CCOCCCNC(=O)c1nc(-c2ccc(OC)c(OC)c2)oc1C	0.88	-1.9
CC(=O)Nc1cccc(NC(=O)c2sc3nc(-c4ccc(F)cc4)cn3c2C)c1	0.93	-1.3
Cc1ccc(C)c(NC(=O)c2cnc3sccn3c2=O)c1	0.82	-2.1
Fc1ccc(-c2nnc3ccc(N4CCCCCC4)nn23)cc1	0.73	-3.8
Cn1c(C(=O)N2CCC(C(=O)N3CCc4ccccc4C3)CC2)cc2sccc21	0.96	-0.71
COc1ccc(-c2cc(CCCC(=O)N3CCC(C(N)=O)CC3)no2)cc1	1	-0.16
CCCCCNc1nc(-c2ccco2)c2c(c1C#N)CCCC2	1.2	6.5
c1csc(-c2nc3ccccc3n2CCC2CCCCC2)c1	0.87	-1.4
C=CCn1c(-c2nonc2NC(C)=O)nc2ccccc21	0.74	-3.1
Cc1ccc(-c2cc3nc(-c4ccc(F)cc4)cc(C(F)(F)F)n3n2)cc1	0.89	-1.5
COc1ccc(NC(=O)c2cc(-c3ccccc3OC)on2)cc1	0.96	-1.2
O=C1Nc2ccccc2OC1CC(=O)N1CCN(c2ccc(Cl)cc2)CC1 (configuration not stated)	0.95	-0.3
COc1cc2[nH]c(=O)n(CCC(=O)N3CCN(c4ncccn4)CC3)c(=O)c2cc1OC	1.1	2.2
Cc1ccc(-n2c(Cc3cccn3C)nnc2SCC(=O)Nc2ccccc2C)cc1	0.87	-3.1
O=C(Nc1ccc(F)cc1)c1cccnc1NCCc1ccccc1	0.92	-1.6
Cc1ccc(-c2cc(C(=O)N3CCOCC3)c3ccccc3n2)cc1C	0.96	-1.4
COCCNC(=O)C(=O)NCc1ccncc1	1.1	0.29
COC(=O)c1cccc(Nc2cc(C)nc3ccc(OC)cc23)c1	0.99	-0.031
Cn1nccc1-c1nc(-c2nonc2N)no1	1.2	1.8
CC(=O)Nc1ccc(NC(=O)C2(S(=O)(=O)c3ccc(Cl)cc3)CC2)cc1	0.99	-0.16
COc1ccc(C2C(Oc3ccccc3C)C(=O)N2c2ccc(F)cc2)cc1OC (configuration not stated)	1	0.38
Cc1cccc(C(=O)Nc2ccc3oc(-c4ccncc4)nc3c2)c1	0.94	-1
CCOC(=O)c1cnc2c(C)cc(Cl)cc2c1Nc1ccc2c(c1)OCCO2	0.86	-0.6
COc1ccc(NC2c3ccccc3C(=O)N2c2ccc(C)cn2)cc1Cl (configuration not stated)	0.93	-2.4
O=C(c1ccc2c(c1)N(Cc1ccc(Cl)cc1)C(=O)CS2)N1CCOCC1	1.1	3.5
CCOc1cccc(CNCc2cccnc2)c1OCc1ccccc1	0.72	-3.1
CC(C)N1C(=O)N(c2ccccc2)C(=O)C1CC(=O)Nc1ccccc1 (configuration not stated)	1	1.7
O=C(CCc1nc2ccccc2[nH]1)NCCc1ccc(Cl)cc1	1.1	2.2
O=C(CSc1nccn1-c1ccc(F)cc1)Nc1cccc(C(F)(F)F)c1	0.66	-2.7
CCOc1cccc2c(C)nc(Nc3nc4c(c(=O)[nH]3)CCCC4)nc12	1	0.4
Cc1nc2cc(NC(=O)c3ccccc3)ccc2n1Cc1ccccc1	0.67	-0.93
CCc1ccc(NC(=O)CN(C)S(=O)(=O)c2ccc3c(c2)CCC(=O)N3)cc1	0.93	-1.6
Cc1cccc(-c2noc(CN(C(=O)COc3ccccc3)C(C)C)n2)c1	0.9	-1
COc1cccc(Nc2nc(Cc3ccccc3)nc3sc(C)c(C)c23)c1	1.1	0.11
Nc1ccc2oc(-c3ccc4ccccc4c3)nc2c1	1.3	6.3
Cc1noc(C)c1S(=O)(=O)N1CCCC(C(=O)N2CCc3ccccc3C2)C1 (configuration not stated)	1.1	1.8
Cc1ccc(Cl)cc1N1CCN(CCCNC(=O)Nc2ccc(F)cc2)CC1	0.73	-0.36
O=S(=O)(NCC1COc2ccccc2O1)c1ccc(OC(F)(F)F)cc1 (configuration not stated)	1.1	1.5
Remaining list, next part.
SMILES	CBX7 AlphaScr	CBX7 AlphaScr z-score
COc1ccc(NC(=O)c2cnn(-c3ccc(F)cc3)c2C2CCNCC2)cc1	1	1.6
O=C(CN1C(=O)COc2ccccc21)NCCc1ccccc1	1	0.097
COC(=O)c1ccc(C2C(Oc3ccc(OC)cc3)C(=O)N2Cc2ccc(F)cc2)cc1 (configuration not stated)	0.93	-0.94
CCOC(=O)c1ccc(Nc2cc(-n3nc(C)cc3-c3ccccc3)ncn2)cc1	0.73	-3
CCC(C(=O)NC1CCCCC1)n1c(SCc2ccccc2F)nc2ccncc21 (configuration not stated)	1.1	2.9
COCc1cc(C)n(CC(=O)Nc2ccccc2)c(=O)c1C#N	0.96	-0.39
COc1cc2c(cc1OC)C(C(=O)N1CC(C)CC(C)C1)C(c1ccccc1F)N(C)C2=O (configuration not stated)	0.75	-2.8
CCOC(=O)N1CCN(C(=O)c2cc(C)no2)CC1	1.1	2.5
COc1cccc(CNc2ccc3c(c2)ncn3C)c1	0.92	-2
CCOC(=O)c1c(CSc2ccc(C)cc2)n(C)c2ccc(O)cc12	0.99	-0.31
O=C(Cc1ccccc1)NCCCc1nc2ccccc2n1Cc1ccccc1F	1.2	1.8
CC(C)CNC(=O)C1CC(=O)N(c2ccc(O)cc2)C1 (configuration not stated)	1	0.09
CCC(Oc1ccccc1)C(=O)Nc1nc2c(s1)C(=O)CC(C)(C)C2 (configuration not stated)	1.2	2.1
CN1Cc2c(N3CCOCC3)nc(SCc3ccc(Cl)c(Cl)c3)c(C#N)c2CC1(C)C	0.81	-4.1
COc1ccc(CCNC(=O)c2cn(-c3ccc(C)c(C)c3)c(=O)c3ccccc23)cc1OC	1	0.79
N#Cc1ccc(C(=O)Nc2ccc(-c3nc4ccccc4[nH]3)cc2)cc1	0.86	-1
CCOc1ccc(-n2c(/C=C/c3cccc(OC)c3OC)nc3ccccc3c2=O)cc1	1	0.82
Cc1nnc(Sc2cc(C(=O)NC3CCCC3)c3ccccc3n2)s1	1.1	1.6
COc1cc2c(C(=O)NCCCN3CCCCCC3)cn(C)c(=O)c2cc1OC	1	1.2
O=C(Cn1ncc2c1-c1ccccc1OC2)N1CCCCC1c1cccnc1 (configuration not stated)	1.2	1.9
N#Cc1c(NC(=O)COCc2cc(-c3ccc(F)cc3)on2)sc2c1CCC2	0.95	-0.53
CCOc1ccccc1NC(=O)CCc1c(C)nc2c(-c3ccccc3)c(C)nn2c1C	1	0.54
Cc1oc(-c2ccccc2F)nc1CS(=O)(=O)CC(=O)NCCCc1ccccc1	0.95	-1.2
Cc1ccc(S(=O)(=O)Nc2nc3ccc(C)cc3nc2Nc2ccc(C)c(C)c2)cc1	1.1	1.7

One compound at a time, as listed above. Screens in order: CBX7 AlphaScr, CBX7 AlphaScr z-score
O=C(Cn1ncc2c1-c1ccccc1OC2)N1CCCCC1c1cccnc1 (configuration not stated) in the list: 1.2, 1.9
CCC(Oc1ccccc1)C(=O)Nc1nc2c(s1)C(=O)CC(C)(C)C2 (configuration not stated) in the list: 1.2, 2.1

Quoted from the listing, three compounds:
SMILES	CBX7 AlphaScr	CBX7 AlphaScr z-score
CCC(Oc1ccccc1)C(=O)Nc1nc2c(s1)C(=O)CC(C)(C)C2 (configuration not stated)	1.2	2.1
CN1Cc2c(N3CCOCC3)nc(SCc3ccc(Cl)c(Cl)c3)c(C#N)c2CC1(C)C	0.81	-4.1
COc1ccc(CCNC(=O)c2cn(-c3ccc(C)c(C)c3)c(=O)c3ccccc23)cc1OC	1	0.79

(listing goes on)
SMILES	CBX7 AlphaScr	CBX7 AlphaScr z-score
Cc1ccc(CNC(=O)CN2C(=O)COc3ccc(S(=O)(=O)N4CCC(C)CC4)cc32)cc1	1	0.85
Cc1ccc(-c2csc3ncn(CC(=O)Nc4ccc(F)c(Cl)c4)c(=O)c23)cc1	0.95	-0.61
O=C(NCCC1=CCCCC1)c1csc2c1CCCC2	1.1	2.4
O=C(NCc1ccccc1)c1cc2ccccn2n1	1.3	2.1
O=C(Nc1ccc(-c2nc3ccccc3o2)c(O)c1)c1cncc(Br)c1	1	0.42
CCCCNC(=O)c1c[nH]n2c(=O)c(Cc3ccccc3F)c(C)nc12	0.81	-0.25
COc1ccc(-c2cc3nc(C)c(CCC(=O)NCCN4CCOCC4)c(C)n3n2)c(OC)c1	0.98	-0.27
CCOC(=O)c1c(NC(=O)c2ccccc2F)sc2c1CCC(CC)C2 (configuration not stated)	1.4	16
CCCNC(=O)N1CCN(c2nc(Cc3ccccc3)c3c(c2C#N)CC(C)(C)OC3)CC1	0.9	-1.2
CCc1ccc(NC(=O)N(CCCN2CCOCC2)Cc2cccs2)cc1	1	0.025
CSc1cccc(Nc2cc(C(=O)NCCC(C)C)c3ccccc3n2)c1	1.2	2.6
CC(C)(C)c1ccc(-c2nnc(SCC(=O)N3CCCC3)o2)cc1	1	0.14
COc1cc2c(cc1OC)C(c1ccc(OC(C)C)c(OC)c1)CC(=O)N2 (configuration not stated)	0.93	-0.91
CC(=O)N1CCc2cc(S(=O)(=O)N(C)c3cccc(C)c3)ccc21	0.83	-0.69
CCCCC(=O)NCCc1cc2c(OC)ccc(OC)c2[nH]c1=O	1.1	3.1
CCc1c(-c2cccs2)nc2ccc(Br)cc2c1C(=O)O	0.98	-0.032
CS(=O)(=O)c1nnnn1-c1ccccc1Cl	1	0.29
Cc1cccc(NC(=O)CSc2nccn2-c2ccccc2)c1	0.7	-6.4
COc1ccc(S(=O)(=O)NCCc2c(C)[nH]c3ccc(OC(F)(F)F)cc23)cc1OC	0.71	-0.29
COc1ccc(Nc2nc(-c3ccc(Br)cc3)nc3ccccc23)c(OC)c1	1.1	0.086
COc1ccc(-c2nc(CN3CCC(C(=O)NC4CCCC(C)C4C)CC3)c(C)o2)cc1 (configuration not stated)	1	0.66
O=C(NC1CCCCCCC1)C1c2cccn2CC(=O)N1CCc1ccc(Cl)cc1 (configuration not stated)	0.98	-0.42
